CXCR6 block: CXCR6 (human) receptor inhibition. O00574. CHO-K1 PathHunter CXCR6 beta-arrestin, luminescence. inhibition, % at 20 µM. 360,000 compounds, 0.36% hits; in the data active = inhibition above about 34%, passing the limit was not always enough;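 also: antagonist mode with CXCL16 agonist at 10 nM final; 0% = 10 nM CXCL16 with DMSO and 100% = unstimulated wells without agonist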
CCR6 antagonist: blocks CCL20-driven beta-arrestin recruitment at human CCR6. P51684. CHO-K1 CCR6 PathHunter beta-arrestin, luminescence, CCL20-stimulated. inhibition, % at 20 µM. 340,000 compounds, 0.49% hits. AID 493098;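 active = compounds whose inhibition of the agonist-driven luminescence signal at 20 µM reaches about 50%, limit read from the data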;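 also: cells stimulated with CCL20 at 14 nM final; plate controls were DMSO with CCL20 for no effect and DMSO without agonist for full effect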
A3G deaminase: inhibitors of human APOBEC3G DNA deaminase; Q9HC16; recombinant A3G, ssDNA deamination FAM/TAMRA fluorescence; 330,000 compounds, 0.28% hits; inhibition, % at 20 µM;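 active = inhibition of at least 40% at 20 µM, with no more than 30% in the related APOBEC3A deaminase screen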;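 also: plate controls were DMSO wells with A3G for no effect and wells lacking A3G enzyme for full effect; some compounds called inactive have numbers as strong as hits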
Target sequence (Q9HC16 whole entry, looked up): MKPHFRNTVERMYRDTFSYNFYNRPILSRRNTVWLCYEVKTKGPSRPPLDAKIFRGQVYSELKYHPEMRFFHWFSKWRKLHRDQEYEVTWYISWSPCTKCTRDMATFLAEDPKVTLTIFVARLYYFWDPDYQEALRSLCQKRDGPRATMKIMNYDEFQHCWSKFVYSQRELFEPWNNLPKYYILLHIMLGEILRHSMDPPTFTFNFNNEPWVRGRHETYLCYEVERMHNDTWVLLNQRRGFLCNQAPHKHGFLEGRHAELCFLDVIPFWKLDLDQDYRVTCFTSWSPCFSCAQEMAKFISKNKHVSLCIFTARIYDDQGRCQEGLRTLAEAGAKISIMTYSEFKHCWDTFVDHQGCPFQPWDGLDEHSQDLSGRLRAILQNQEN
EBI2 block: EBI2 (human) antagonism | 360,000 compounds, 0.81% hits | EBI2 beta-arrestin recruitment, luminescence, 7a,25-OHC stimulated | inhibition, % at 5 µM | AID 651636 | P32249; in the data active = inhibition above about 38%;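 also: enzyme fragment complementation signal reports receptor beta-arrestin coupling in cells; 0% = agonist plus DMSO wells and 100% = wells without agonist; some results beyond the cut were filed as inactive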
Target sequence (P32249 whole entry, looked up, the tested form may be a part): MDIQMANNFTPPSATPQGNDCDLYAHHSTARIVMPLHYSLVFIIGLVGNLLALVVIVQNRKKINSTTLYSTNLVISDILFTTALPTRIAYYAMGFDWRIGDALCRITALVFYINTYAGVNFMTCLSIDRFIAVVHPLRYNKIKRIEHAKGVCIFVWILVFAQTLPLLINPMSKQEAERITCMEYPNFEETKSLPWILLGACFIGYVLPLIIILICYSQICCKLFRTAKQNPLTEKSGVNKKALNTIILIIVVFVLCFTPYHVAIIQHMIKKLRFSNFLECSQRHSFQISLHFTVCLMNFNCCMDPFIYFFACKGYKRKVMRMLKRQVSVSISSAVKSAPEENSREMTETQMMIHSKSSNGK
APOBEC3A inh: blocks human APOBEC3A ssDNA deamination | P31941 | recombinant A3A, FAM/TAMRA ssDNA deamination fluorescence | inhibition, % at 20 µM | 330,000 compounds, 0.41% hits | AID 493011;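 active = at least 40% inhibition at 20 µM here, with at most 30% in a related deaminase screen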;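 also: plate controls were A3A with DMSO for no effect and wells lacking A3A enzyme for full effect; some results filed as inactive read as strong as hits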
Numbers without * were called inactive; · = not tested or not shown; & = joins results of further samples. Not all compounds are listed. The share of hits here may be higher or lower than overall.

no.	smiles	CXCR6 block	CCR6 antagonist	A3G deaminase
1	COC1=CC(=O)C[C@@H](C)[C@]12Oc1c(Cl)c(OC)cc(OC)c1C2=O	8	2	-8
2	NS(=O)(=O)c1ccc(NC(=O)Nc2ccccc2)cc1	-7	3	-4
3	O=C(O)c1cc(NS(=O)(=O)c2cccc3ccccc23)ccc1O	-2	-6	-9
4	CC(=O)O[C@H]1C(=O)[C@@]2(C)[C@H]([C@H](OC(=O)c3ccccc3)[C@]3(O)C[C@H](OC(=O)[C@H](O)C(NC(=O)c4ccccc4)c4ccccc4)C(C)=C1C3(C)C)[C@]1(OC(C)=O)CO[C@@H]1C[C@@H]2O (some centres undefined)	-2	4	-6
5	Nc1ccn([C@@H]2O[C@H](CO)[C@@H](O)C2O)c(=O)n1 (some centres undefined)	4	-2	-6
6	CN/C(=C/[N+](=O)[O-])NCCSCc1ccc(CN(C)C)o1	-3	-6	-5
7	NS(=O)(=O)c1ccc(NC(=O)Nc2ccc(C(F)(F)F)cc2)cc1	-22	0	-3
8	O=c1[nH]cnc2c1ncn2[C@H]1CC[C@@H](CO)O1	-10	-5	-1

no.	EBI2 block	APOBEC3A inh
1	-5	0
2	-8	-3
3	-3	-1
4	8	2
5	0	1
6	0	-2
7	-7	0
8	7	-4

(more compounds)
no.	smiles	CXCR6 block	CCR6 antagonist	A3G deaminase
9	CC[N+](C)(C)Cc1ccccc1Br	0	11	-6
10	CCCCNc1cc(C(=O)O)cc(S(N)(=O)=O)c1Oc1ccccc1	4	-1	0
11	COc1cc(CNC(=O)CCCC/C=C\C(C)C)ccc1O	·	·	-4
12	CC(C)[N+]1(C)[C@@H]2CC[C@@H]1CC(OC(=O)C(CO)c1ccccc1)C2 (some centres undefined)	2	-4	-7
13	CCC(=O)OCC(=O)[C@@]1(OC(=O)CC)[C@@H](C)C[C@H]2[C@@H]3CCC4=CC(=O)C=C[C@]4(C)[C@@]3(Cl)[C@@H](O)C[C@@]21C	-2	12	-4
14	CCCCNC(=O)NS(=O)(=O)c1ccc(C)cc1	-1	7	7
15	COc1ccc(C2CC(c3ccccc3)=NN2C(=O)CCCC(=O)O)cc1 (centres undefined)	0	-17	-3
16	CN=C(C[N+](=O)[O-])NCCSCc1ccc(CN(C)C)o1	-14	6	-1

no.	EBI2 block	APOBEC3A inh
9	2	-1
10	-3	-3
11	·	-2
12	-3	-3
13	21	5
14	1	4
15	-5	-2
16	-4	-1

Quoted at random: two records from the list, in no set order.
no.	smiles	CXCR6 block	CCR6 antagonist	A3G deaminase
11	COc1cc(CNC(=O)CCCC/C=C\C(C)C)ccc1O	·	·	-4
13	CCC(=O)OCC(=O)[C@@]1(OC(=O)CC)[C@@H](C)C[C@H]2[C@@H]3CCC4=CC(=O)C=C[C@]4(C)[C@@]3(Cl)[C@@H](O)C[C@@]21C	-2	12	-4

no.	EBI2 block	APOBEC3A inh
11	·	-2
13	21	5

The results go on.
no.	smiles	CXCR6 block	CCR6 antagonist	A3G deaminase
17	COc1ccc([C@@H]2Sc3ccccc3N(CCN(C)C)C(=O)[C@@H]2OC(C)=O)cc1	-3	0	-5
18	CC(=O)Nc1ccc(OCC(O)CNC(C)C)cc1 (centres undefined)	-1	-4	-2
19	O=C(OCc1ccccc1)c1ccccc1	4	13	-6
20	CC(C)(C(=O)O)c1ccc(C(O)CCCN2CCC(C(O)(c3ccccc3)c3ccccc3)CC2)cc1 (centres undefined)	9	2	2
21	Cc1[nH]c(=O)c(C#N)cc1-c1ccncc1	2	-4	-3
22	CN1C2CC(OC(=O)C(CO)c3ccccc3)CC1C1OC12 (centres undefined)	3&-5&-8	3&8&0	-11&-4&-4
23	O=C(O)COCCN1CCN([C@H](c2ccccc2)c2ccc(Cl)cc2)CC1	-7	-7	-10
24	N#Cc1c(-c2cccc(Br)c2)cc(-c2ccco2)[nH]c1=O	2	-9	0

no.	EBI2 block	APOBEC3A inh
17	2	2
18	1	-2
19	-1	-1
20	-1	1
21	-1	1
22	2&-7&-13	-5&0&-2
23	-6	-3
24	-4	5

Single records (already shown). Order of values: CXCR6 block	CCR6 antagonist	A3G deaminase	EBI2 block	APOBEC3A inh
O=C(OCc1ccccc1)c1ccccc1 across the screens: 4	13	-6	-1	-1
CC(=O)Nc1ccc(OCC(O)CNC(C)C)cc1 (centres undefined) across the screens: -1	-4	-2	1	-2
COc1ccc([C@@H]2Sc3ccccc3N(CCN(C)C)C(=O)[C@@H]2OC(C)=O)cc1 across the screens: -3	0	-5	2	2
O=C(O)COCCN1CCN([C@H](c2ccccc2)c2ccc(Cl)cc2)CC1 across the screens: -7	-7	-10	-6	-3
CN1C2CC(OC(=O)C(CO)c3ccccc3)CC1C1OC12 (centres undefined) across the screens: 3&-5&-8	3&8&0	-11&-4&-4	2&-7&-13	-5&0&-2

Additional structures
no.	smiles	CXCR6 block	CCR6 antagonist	A3G deaminase
25	O=C1NCN(c2ccccc2)C12CCN(CCCC(c1ccc(F)cc1)c1ccc(F)cc1)CC2	11	40	-6
26	Cn1c(=O)c2c(ncn2C)n(C)c1=O	-4	6	-1
27	Cc1ccc(S(=O)(=O)NC(=O)NN2CCCCCC2)cc1	5	0	-3
28	CN1[C@@H]2CCC[C@H]1CC(NC(=O)c1nn(C)c3ccccc13)C2 (some centres undefined)	2	6	-5
29	COc1c(N2C[C@@H]3CCCN[C@@H]3C2)c(F)cc2c(=O)c(C(=O)O)cn(C3CC3)c12	-11	7	-2
30	CC(C)(C)CC(C)(C)c1ccc(OCCOCC[N+](C)(C)Cc2ccccc2)cc1	-4	2	-6
31	CCCC(=O)Nc1ccc(OCC(O)CNC(C)C)c(C(C)=O)c1 (centres undefined)	2	7	-4
32	COc1cc(CNC(=O)CCCC/C=C/C(C)C)ccc1O	0	15	5

no.	EBI2 block	APOBEC3A inh
25	1	2
26	-4	1
27	-2	0
28	2	-2
29	-3	2
30	3	0
31	-7	-2
32	5	2

4 entries from above, reformatted.
| nr | smiles | CXCR6 block | CCR6 antagonist | A3G deaminase | EBI2 block | APOBEC3A inh |
| --- | --- | --- | --- | --- | --- | --- |
| 25 | O=C1NCN(c2ccccc2)C12CCN(CCCC(c1ccc(F)cc1)c1ccc(F)cc1)CC2 | 11 | 40 | -6 | 1 | 2 |
| 32 | COc1cc(CNC(=O)CCCC/C=C/C(C)C)ccc1O | 0 | 15 | 5 | 5 | 2 |
| 26 | Cn1c(=O)c2c(ncn2C)n(C)c1=O | -4 | 6 | -1 | -4 | 1 |
| 29 | COc1c(N2C[C@@H]3CCCN[C@@H]3C2)c(F)cc2c(=O)c(C(=O)O)cn(C3CC3)c12 | -11 | 7 | -2 | -3 | 2 |

Further compounds
no.	smiles	CXCR6 block	CCR6 antagonist	A3G deaminase
33	CC(=O)Nc1cccc(-c2nnc(-c3ccc(C)cc3)o2)c1	-7	4	-10
34	CN=C(NC#N)NCCSCc1nc[nH]c1C	-1	-8	-5
35	COC(=O)[C@@H]1[C@H]2C[C@H]3c4[nH]c5ccccc5c4CCN3C[C@@H]2CC[C@@H]1O	-8	3&11	-5&-6
36	CN1C2CCC1CC(OC(=O)C(CO)c1ccccc1)C2 (centres undefined)	0	-3	3
37	Cc1cccc(CN2CCN(C(c3ccccc3)c3ccc(Cl)cc3)CC2)c1 (centres undefined)	8	20	2
38	c1ccc(-c2ccc(C(c3ccccc3)n3ccnc3)cc2)cc1 (centres undefined)	3	11	·
39	O=C(c1ccc(NS(=O)(=O)c2ccccc2)cc1)N1CCN(c2ccccc2)CC1	7	23	-8
40	CC(=O)c1nc2ccccc2n1S(=O)(=O)c1ccc(Cl)cc1	-3	1	-6

no.	EBI2 block	APOBEC3A inh
33	-22	-1
34	3	0
35	-4	-3&-3
36	-3	1
37	5	0
38	28	·
39	-4	-6
40	3	-2

(next part)
no.	smiles	CXCR6 block	CCR6 antagonist	A3G deaminase
41	CCc1nc(N)nc(N)c1-c1ccc(NCCN)c([N+](=O)[O-])c1	17	33	·
42	CC(C)NCC(O)COc1cccc2ccccc12 (centres undefined)	-5	-9	-3
43	CCCCCC(O)C=CC1C(O)CC(O)C1CC=CCCCC(=O)O (centres undefined)	-2	·	·
44	CCOc1ccc2nc(S(N)(=O)=O)sc2c1	-3	0	-1

no.	EBI2 block	APOBEC3A inh
41	6	·
42	0	0
43	-3	·
44	1	1

Source: PubChem
